Sa RN4220 lethal = S. aureus RN4220 growth inhibition. AID 1259311. 330,000 compounds, 0.33% hits. OD600, 16 h. inhibition, % (test concentration not listed);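 active = z-score of -3 or lower and OD600 up to 0.18 on both plates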;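 note: plate controls were untreated cells for no effect and reference antibiotic for full effect; stock transfer was 100 nL into about 80 µL; one replicate is shown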
Mtb hypoxia inh = inhibitors of hypoxia-regulated fluorescent reporter in Mycobacterium tuberculosis; AID 1159583; M. tuberculosis hypoxia-regulated fluorescent reporter, fluorescence; 300,000 compounds, 0.1% hits; fluorescence inhibition, % (no concentration beside the values);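 active = 35 to 45% if threefold the growth effect, above 45% if 1.5-fold the growth effect; inactive = the rest, general growth blockers included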;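 note: wells of about 50 µL received 100 nL stock; 0% = vehicle wells and 100% = reference inhibitor wells; whole bacteria with a GFP reporter of the hypoxia response; strong numbers were not always called active; many hits fall short of the cut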
ugtP null kill = growth inhibition of S. aureus ugtP deletion strain; S. aureus RN4220 ugtP deletion, OD600 growth, 16 h; some inactives read as strong as hits; growth inhibition, % (test concentration not listed); 330,000 compounds, 0.54% hits;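 active = z-score under -3 and OD600 up to 0.15 on both plates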;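 note: plate controls were untreated wells for no effect and antibiotic for full effect; wells of about 80 µL received 100 nL stock; the first replicate is given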
Autofluor counter = counter-screen for toxin protease inhibitors: compound fluorescence | compound autofluorescence counterscreen, microsphere flow cytometry; active compounds read high | fluorescence intensity (no concentration beside the values) | 360,000 compounds, 3.1% hits;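 active = at least 3 SD above the mean of all compounds, about 16000 in these data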;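 note: 100 nL of 1 mM stock went into each well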
PrP 5UTR inh = suppresses PrP 5' UTR mRNA reporter expression | cell-based PrP 5' UTR mRNA reporter, plate reader | inhibition, % (concentration not given with the values) | 340,000 compounds, 0.35% hits;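 active = every replicate at 50% or more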;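 note: 0 = median of the neutral control wells; tested in H4 reporter cells; numbers are from one replicate; inactives centre near -14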
BJeLR lethal = kills HRASV12-expressing BJeLR cells; AID 1554; 300,000 compounds, 0.17% hits; inhibition, % (no concentration beside the values); BJeLR (HRASV12) viability, CellTiter-Glo ATP luminescence, 48 h; reference of the scale not given here;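 active = replicate mean above 50%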;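 note: 50 nL library stock added to about 25 µL; numbers are from one replicate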
Mtb hypoxia inh growth = also measured in Mtb hypoxia inh; calls as there; growth inhibition, %; measured here: M. tuberculosis growth (absorbance);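 0% = vehicle and 100% = reference antibiotic; read after six days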
Starred values were filed as active, the others as inactive; x = not tested or not shown.

Codes – A = Sa RN4220 lethal; B = Mtb hypoxia inh; C = Mtb hypoxia inh growth; D = ugtP null kill; E = Autofluor counter; F = PrP 5UTR inh; G = BJeLR lethal
1	c1ccc2c(c1)-c1nc3ccccc3cc1C2N1CCOCC1 (stereo not drawn)
  A = 4.2	B = 13	C = 4	D = 7	E = 3332	F = -11	G = x
2	O=C(CC(=O)c1ccccc1)c1ccccc1
  A = -1.8	B = 3	C = 4	D = -3	E = 3354	F = -72	G = x
3	COc1cc(C(=O)NCC(C)C)c([N+](=O)[O-])cc1OC
  A = 3.3	B = -4	C = 9	D = -1	E = 11014	F = -13	G = -7
4	CCCS(=O)(=O)N1CCC(C(=O)NCC2CCCO2)CC1 (stereo not drawn)
  A = -12	B = 2	C = 2	D = -2	E = 3025	F = -31	G = x
5	c1ccc(C2C3=C(CCCC3)Nc3ncnn32)cc1 (stereo not drawn)
  A = 4.4	B = -3	C = -2	D = 8	E = 7992	F = -10	G = -4
6	O=C(CSc1nncn1-c1cccnc1)N1CCOCC1
  A = 6.7	B = 13	C = 0	D = 7	E = 2485	F = -2	G = 1
7	COc1cccc(CNS(=O)(=O)c2cc(-c3cc(C)no3)ccc2C(C)C)c1
  A = 2.9	B = 12	C = 3	D = 14	E = 5290	F = -13	G = 2
8	COc1ccc(C(C)=NOCC(=O)Nc2nc3ccccc3s2)cc1OC
  A = -1.0	B = 12	C = 9	D = 5	E = x	F = x	G = x
9	O=C1CCC(c2ccccc2)N1C(=O)c1cccnc1 (stereo not drawn)
  A = 5.8	B = 4	C = 5	D = 4	E = 23368*	F = -18	G = 4
10	O=C(c1cc(Br)ccc1O)N1CCN(S(=O)(=O)Cc2ccccc2)CC1
  A = 5.5	B = 2	C = 3	D = 6	E = 7873	F = -8	G = x
11	O=C(COC(=O)c1ccc(S(=O)(=O)NCc2ccco2)cc1)NCC1CCCCC1
  A = 0.7	B = -4	C = 4	D = -3	E = 5911	F = 3	G = -2
12	Clc1ccc(-c2nnc3cccc(Cl)n23)c(Cl)c1
  A = -3.4	B = -2	C = 5	D = -8	E = 3225	F = -14	G = 13
13	O=C(COc1cccc2cccnc12)N/N=C1\SCC(=O)N1CCc1ccccc1
  A = x	B = x	C = x	D = x	E = 4527	F = -12	G = 5
14	COc1ccc(NC(=O)c2c(Cl)cnn2C)c(C)c1
  A = 1.5	B = 18	C = 4	D = 3	E = 2246	F = -28	G = -7
15	O=C(c1cc2c(=O)n3ccccc3nc2s1)N1CCN(Cc2ccc3c(c2)OCO3)CC1
  A = 5.7	B = 5	C = 2	D = -69	E = 3840	F = -9	G = -2
16	CCCNCc1cc(Br)ccc1OCC(=O)NCCc1ccccc1
  A = 7.7	B = 2	C = 9	D = -6	E = 2518	F = -26	G = 14
17	CC(Nc1ccc(Cl)cc1)c1cc(Cl)ccc1O (stereo not drawn)
  A = -0.3	B = x	C = x	D = -12	E = 5581	F = -19	G = -12
18	C[n+]1c(-c2ccccc2)cc(-c2ccc(Cl)cc2)cc1-c1ccccc1
  A = -5.3	B = 10	C = 5	D = -4	E = 4749	F = -31	G = 13
19	CC(C)(C)c1ccc(C(=O)N2CCC(=O)N(C(CO)Cc3ccccc3)CC2)cc1 (stereo not drawn)
  A = 0.7	B = -1	C = 4	D = -3	E = 3766	F = -5	G = 11
20	CCc1ccc(NC(=O)CSc2ccc(-c3ccco3)nn2)cc1
  A = 8.6	B = 3	C = -5	D = 1	E = 4247	F = -7	G = -4
21	Cc1c(OCC(=O)N(C)C)ccc2c(-c3ccccc3)cc(=O)oc12
  A = 6.2	B = 2	C = 2	D = 11	E = 4186	F = -14	G = 7
22	CCC1CCCCN1C(=O)COc1cccc2c1CCN(C)C2=O (stereo not drawn)
  A = -1.8	B = 12	C = 2	D = 3	E = 4233	F = -8	G = -9
23	O=C(Nc1cnccn1)C1c2ccccc2Oc2ccccc21
  A = -3.2	B = 2	C = 3	D = 6	E = 19665*	F = -19	G = -5
24	CCOC(=O)c1sc(NC(=O)CSc2nc(-c3ccco3)cc(C(F)(F)F)n2)c(C(=O)OC)c1C
  A = 5.0	B = 2	C = -2	D = -1	E = 10436	F = -18	G = 4
25	O=C(Nc1nccs1)C1CCCN(S(=O)(=O)c2cccnc2)C1 (stereo not drawn)
  A = 3.1	B = x	C = x	D = 3	E = 5980	F = -7	G = -1

Reformatted with one line to a screen: entries from further up.
(4) CCCS(=O)(=O)N1CCC(C(=O)NCC2CCCO2)CC1 (stereo not drawn)
(5) c1ccc(C2C3=C(CCCC3)Nc3ncnn32)cc1 (stereo not drawn)
(6) O=C(CSc1nncn1-c1cccnc1)N1CCOCC1
(7) COc1cccc(CNS(=O)(=O)c2cc(-c3cc(C)no3)ccc2C(C)C)c1
(8) COc1ccc(C(C)=NOCC(=O)Nc2nc3ccccc3s2)cc1OC
(9) O=C1CCC(c2ccccc2)N1C(=O)c1cccnc1 (stereo not drawn)
(10) O=C(c1cc(Br)ccc1O)N1CCN(S(=O)(=O)Cc2ccccc2)CC1
(11) O=C(COC(=O)c1ccc(S(=O)(=O)NCc2ccco2)cc1)NCC1CCCCC1
Assay by compound | 4 | 5 | 6 | 7 | 8 | 9 | 10 | 11
Sa RN4220 lethal | -12 | 4.4 | 6.7 | 2.9 | -1.0 | 5.8 | 5.5 | 0.7
Mtb hypoxia inh | 2 | -3 | 13 | 12 | 12 | 4 | 2 | -4
Mtb hypoxia inh growth | 2 | -2 | 0 | 3 | 9 | 5 | 3 | 4
ugtP null kill | -2 | 8 | 7 | 14 | 5 | 4 | 6 | -3
Autofluor counter | 3025 | 7992 | 2485 | 5290 | x | 23368* | 7873 | 5911
PrP 5UTR inh | -31 | -10 | -2 | -13 | x | -18 | -8 | 3
BJeLR lethal | x | -4 | 1 | 2 | x | 4 | x | -2

Screens (PubChem)
